Assay outcomes deposited in PubChem by National Center for Advancing Translational Sciences (NCATS).
TRPV1 PAM = human TRPV1 potentiation; 320,000 tested, 0.02% active; Q8NER1; potentiation, % at 8.33 µM; TRPV1-expressing cells, Fluo-8 calcium influx, capsaicin EC20 potentiation; host cell line not named in the record; control for the full effect not named in the record; active means potentiation above 80%; inconclusive means 30% to 80%; inactive means below 30%; note: 0% is about no effect
Target sequence (Q8NER1 whole entry, looked up): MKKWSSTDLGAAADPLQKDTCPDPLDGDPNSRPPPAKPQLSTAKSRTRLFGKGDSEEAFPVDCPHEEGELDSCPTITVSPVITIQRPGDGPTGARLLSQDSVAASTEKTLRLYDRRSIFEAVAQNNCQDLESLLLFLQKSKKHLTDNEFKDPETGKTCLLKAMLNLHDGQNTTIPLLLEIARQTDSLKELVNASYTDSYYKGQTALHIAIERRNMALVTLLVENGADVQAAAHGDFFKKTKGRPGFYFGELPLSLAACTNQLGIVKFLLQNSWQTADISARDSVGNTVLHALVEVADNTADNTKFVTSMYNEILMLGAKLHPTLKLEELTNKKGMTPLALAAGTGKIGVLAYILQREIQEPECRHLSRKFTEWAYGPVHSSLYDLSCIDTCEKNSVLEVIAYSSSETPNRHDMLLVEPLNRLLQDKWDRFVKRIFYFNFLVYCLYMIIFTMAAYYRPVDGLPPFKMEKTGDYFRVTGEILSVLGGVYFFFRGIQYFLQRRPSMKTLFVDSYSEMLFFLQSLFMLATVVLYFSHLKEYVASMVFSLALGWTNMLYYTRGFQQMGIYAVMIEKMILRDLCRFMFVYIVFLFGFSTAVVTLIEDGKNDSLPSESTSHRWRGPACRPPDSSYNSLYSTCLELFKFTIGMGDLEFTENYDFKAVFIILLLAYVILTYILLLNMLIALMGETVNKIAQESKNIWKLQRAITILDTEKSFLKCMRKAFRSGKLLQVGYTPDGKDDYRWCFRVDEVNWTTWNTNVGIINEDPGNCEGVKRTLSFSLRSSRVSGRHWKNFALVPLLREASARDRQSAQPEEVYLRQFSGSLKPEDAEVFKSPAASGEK
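TRPV1-expressing cells were cultured overnight at 35.5C and loaded with Fluo-8 calcium dye for 40 to 90 min at room temperature. After a 10 s baseline, compound was added and calcium influx was read kinetically for 3 min (ex 480/em 520 nm).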
Sfp PPTase inh = Sfp phosphopantetheinyl transferase inhibition. Q9F4F7. Biochemical Sfp PPTase activity, qHTS. Potency, µM, without a hit: max response, negative = inhibition, hits mostly inhibitors. 310,000 tested, 3.5% active. AID 1490; active = well fitted inhibition curve with a large enough effect; inconclusive = small, poorly fitted or top-dose-only effect, or another doubt; inactive = no such curve, though single readings can be large or run the other way;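 note: the enzyme is Sfp with the accession as filed and its product quenches rhodamine fluorescence; potency is the fitted concentration of half-maximal effect; 0% = enzyme reaction without inhibitor and -100% = no enzyme wells; top concentration of the series not given in the record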
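Fluorescence-quenching assay with 15 nM Sfp, 5 uM rhodamine-CoA and 12.5 uM BHQ-2-labelled ybbR peptide in pH 7.6 Hepes/MgCl2 buffer. Enzyme was pre-incubated with compound for 15 min at room temperature. Rate was taken from the 30-min fluorescence change (525/598 nm).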
gsp agonist = agonists of gsp mutant (McCune-Albright syndrome); gsp mutant cells, cAMP HTRF, 30 min; control for the full effect not named in the record; Potency, µM (highest dose often 76.9 µM), inactives show at the highest dose activation (cAMP increase), most hits filed as activators; 340,000 tested, 0.13% active; active = well fitted activation curve with a large enough effect; inconclusive = small, poorly fitted or top-dose-only effect, or another doubt; inactive = no such curve, though single readings can be large or run the other way; cell line not stated here;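 note: phosphodiesterase inhibitor Ro 20-1724 added with compounds to block cAMP breakdown; potency is the fitted concentration of half-maximal effect; nearly all actives have a fitted effect of over 60% in size; about a fifth of the inactives were tested at one dose only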
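Cells in DMEM/10% FBS with G418 were pretreated with compounds in DMSO plus […] (300 uM stock) for 30 min at 37C. cAMP was measured by HTRF (cAMP-d2 plus anti-cAMP antibody-K) after 30 min at room temperature.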
gsp antagonist = gsp mutant antagonism; gsp-mutant cells, cAMP HTRF, 30 min; control for the full effect not named in the record; Potency, µM (top dose mostly 76.9 µM), without a hit: at the top dose activity change, negative = inhibition, hits mostly inhibitors; 340,000 tested, 0.4% active; AID 624288; active = falling curve of any shape with a large fitted effect; inconclusive = falling curve, mostly with a smaller effect; inactive = flat or rising curve; cell line not stated here;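 note: intracellular cAMP measured with PDE inhibitor Ro 20-1724 present during compound exposure; potency is the fitted concentration of half-maximal effect; % is set by controls: 0 for no effect and ±100 for the full control effect; nearly all actives have a fitted effect of over 65% in size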
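Cells, 2000/well, grown 16–24 h in DMEM 10% FBS with 0.5 mg/ml G418, then compounds plus […] (300 uM addition stock), 30 min at 37C. cAMP read by HTRF (cAMP-d2 and anti-cAMP antibody-K in lysis buffer) after 30 min RT.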
Menin MLL FP FL = menin-MLL binding inhibition, fluorescein peptide; FP activity change, % at 61.4 µM; 290,000 tested, under 10 active; Fluorescence polarization, fluorescein-MLL peptide displacement from menin; inconclusive = falling polarisation curve, or a change in total fluorescence; inactive = total fluorescence flat and polarisation flat or rising; no compound was filed as active; the % refers to the polarisation; negative = inhibition;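 note: % of control where 0% means no effect; inhibitors lower the polarisation; unlabelled MLL peptide was the positive control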
TRPML1 inh = blocks the human TRPML1 channel; TRPML1-inducible cells, Ca2+ dye fluorescence, FDSS; hits give low values; inhibition of EC80 agonist-evoked calcium signal; activity change, negative = inhibition, % (test concentration not listed); 390,000 tested, 0.02% active; in the data active means activity change below about -50%; inconclusive means about -30% to -50%; inactive means above about -30%;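 note: stimulus is agonist 54-4 at its EC80 concentration; % is set by controls: 0 for no effect and ±100 for the full control effect; compound concentration not given in the record; the text of the record puts the active cut at -80%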
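Calcium fluorescence in TRPML1-DL cells induced overnight with Tet: a 110 s read after compound pin addition, then a 110 s antagonist read after challenge with 54-4 at 4 uM final (EC80).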
ClpP mod = qHTS Assay for Activators of ClpP; 340,000 tested, 1.9% active; purified B. subtilis ClpP, FRET peptide cleavage, 20 min; Potency, µM (titrated, usually from 57.5 µM), for inactives: at the top dose activity change, negative = active; ATP-dependent Clp protease proteolytic subunit (Bacillus subtilis (strain 168)), P80244; AID 651965, 2013; active = well fitted falling curve with a large enough effect; inconclusive = small, poorly fitted or top-dose-only effect; inactive = no such curve, though single readings can be large or run the other way; note: potency is the fitted concentration of half-maximal effect; the source files actives as falling curves though it sought activators and does not explain the sign; nearly all actives have a fitted effect of over 65% in size; many hits overshoot -100%
Target sequence (P80244 whole entry, looked up): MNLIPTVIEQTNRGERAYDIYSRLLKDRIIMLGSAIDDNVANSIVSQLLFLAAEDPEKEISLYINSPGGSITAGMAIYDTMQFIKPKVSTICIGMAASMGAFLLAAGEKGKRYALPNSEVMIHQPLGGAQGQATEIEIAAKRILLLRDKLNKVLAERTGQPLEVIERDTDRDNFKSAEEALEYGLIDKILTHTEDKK
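ClpP 10 microg/mL final, pH 8 Tris/KCl buffer with BSA, glycerol, Tween-20; compound pinned in; FRET-FV substrate; RT 20 min; Ex320/Em430; ΔFRET vs ADEP 5.8 microM, DMSO, no enzyme.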
* marks the source's active call; other numbers are inactive results; ? = inconclusive; · = no result given; [ ] = another dose, or the depositor's remark.

mol	TRPV1 PAM	Sfp PPTase inh	gsp agonist	gsp antagonist	Menin MLL FP FL	TRPML1 inh	ClpP mod
Cc1ccc(C)c(NC(=S)NC(C)C(c2cccs2)N2CCOCC2)c1 (stereo not drawn)	?	14.5%	?	1.9%	-0.3	3.3	-0.5%
COc1cccc(-n2nc(C(N)=O)c(O)cc2=O)c1	7.7	12.7%	-0.9%	6.2%	-7.0	-10.2	·
O=C(Nc1nccs1)c1ccc(S(=O)(=O)c2ccccc2)cc1	5.0	3.3%	3.4%	9.9%	3.2	43.2	-4.7%
CCCCn1c(N)c(N(CCOC)C(=O)c2cc(-c3ccc(C)cc3)nc3ccccc23)c(=O)[nH]c1=O	9.3	·	-10.4%	5.8%	·	-22.9	?
Cc1[nH]c(C)c(S(=O)(=O)NCc2ccc(F)cc2)c1C(=O)N1CCCC1	2.9	10.0%	?	14.3%	·	-12.8	-2.5%
CCN(c1ccccc1)S(=O)(=O)c1ccc(C(=O)N2CCCC(C(F)(F)F)C2)cc1 (stereo not drawn)	-5.9	·	-26.9%	3.0%	·	-5.4	-3.3%
CC1CCN(c2nc(-c3ccccc3)c(C#N)c(=O)[nH]2)CC1	-6.0	6.0%	2.3%	5.6%	-1.2	-11.4	45.1%
COc1cc(/C=C2/N=C(c3ccccc3F)OC2=O)cc(Cl)c1OS(C)(=O)=O	5.2	8.4%	24.4%	-6.7%	3.4	5.3	-4.7%
COc1ccc(-c2nc(NC(=O)Cn3cnnn3)sc2C)cc1	-3.4	-6.6%	-4.0%	-12.8%	1.4	-17.2	0.5%
Cc1ccc(C)n1-c1nccc(-c2cccs2)n1	1.4	2.0%	-6.7%	-4.0%	6.4	2.1	24.1%
COc1ccc(C(=O)NNC(=O)CN(C)S(=O)(=O)c2ccc(Cl)cc2)c(OC)c1OC	25.5	·	8.6%[15.4 µM]	2.2%	·	-6.3	0.9%
CN(C)S(=O)(=O)c1ccc(NC(=O)CCCNC(=O)c2ccc(Cl)cc2)cc1	-3.8	8.1%	?	0.6%	1.5	-8.5	1.7%
CCOc1ccc(N(CC(=O)N2CCCCCC2)S(=O)(=O)c2ccc(F)cc2)cc1	-3.7	-5.1%	0.7%	0.7%	·	3.7	2.0%
O=C(Cn1cnc2c(cnn2-c2ccccc2)c1=O)N1CCOCC1	2.8	15.2%	-11.0%	4.5%	1.5	-8.0	-10.7%
O=C(COc1ccc2oc(-c3ccccc3)cc(=O)c2c1)Nc1ccccc1	-24.1	-15.6%	38.2%[15.4 µM]	2.3%	2.5	-5.2	0.7%
COc1ccc(CCNC(=O)c2cc(-c3ccncc3)nc3ccc(S(=O)(=O)N4CCOCC4)cc23)cc1OC	1.3	-5.6%	1.1%	-19.0%	-2.7	-3.3	-0.7%
CCOC(=O)c1c(NC(=O)CSc2nnc(C)c(=O)[nH]2)sc(C)c1C	10.7	-15.5%	·	·	3.0	·	·
COC(=O)CCC(=O)Nc1ccc2oc3c(c2c1)CCCC3	-22.3	0.9%	1.8%[15.4 µM]	-8.1%	0.0	2.1	0.3%
COC(=O)c1cc(O)c(OCc2ccccc2)c(O)c1	21.8	13.3%	-2.8%	14.1%	0.1	-2.4	-0.3%
C[C@H]1CCC[C@@]2(O[C@H](CCO)C[C@H](O)[C@H]2O)O1	·	·	·	7.6%	·	-7.3	-1.8%
O=[N+]([O-])c1cc([N+](=O)[O-])c2cc(-c3cccnc3)[nH]c2c1	·	·	-0.7%	-16.6%	·	-11.4	·
Cc1c(CNC(=O)C2CCC(=O)N(CCc3ccccc3)C2)cnn1C (stereo not drawn)	-1.3	3.0%	27.0%	13.6%	-0.7	-29.1	-3.6%
Cc1ccc2cc(CN(CC3CCCO3)S(=O)(=O)c3cccc4nsnc34)c(=O)[nH]c2c1 (stereo not drawn)	0.7	10.3%	-16.8%	-10.8%	2.5	17.0	0.5%
COc1ccc(CNS(=O)(=O)c2ccc3c(c2)CC(C)N3C(=O)C2CC2)cc1 (stereo not drawn)	1.7	15.7%	4.2%	-26.2%	-1.4	33.3	-3.2%
O=C(c1ccc(F)cc1)N1CCN(C2=NS(=O)(=O)c3ccccc32)CC1	21.3	18.9%	-5.5%[15.4 µM]	-4.0%	0.8	6.4	·
O=C(COC(=O)CN1C(=O)C2CC=CCC2C1=O)Nc1cc(C(F)(F)F)ccc1N1CCOCC1 (stereo not drawn)	3.3	1.3%	4.7%	-16.9%	0.8	-8.7	1.6%
CC(=O)Nc1nc2[nH]ccc2c(=O)[nH]1	·	·	1.1%	·	·	-2.0	-0.5%
COC(=O)C1=CN(Cc2ccc(OC)c(OC)c2)C=C(C(=O)OC)C1c1cccc(F)c1	-1.6	-0.7%	-23.6%	6.6%	-0.8	-19.6	3.9%
COc1ccc(N=c2ssnc2Cl)cc1	1.4	8.91µM*	-8.6%	?	4.1	-14.7	1.2%
COc1ccc(-n2ccnc2SCC(=O)Nc2ccccc2)cc1	6.3	17.6%	-4.8%	-6.2%	-4.1	6.6	-3.7%
O=C1c2cccnc2C(=O)N1Cc1ccc(F)cc1S(=O)(=O)NCc1ccco1	-8.6	3.6%	?	4.1%	-1.6	-4.0	0.1%
O=C(CN1CCN(Cc2ccc3c(c2)OCO3)CC1)Nc1ccc(F)cc1	-48.4	2.9%	-13.7%	15.1%	·	16.1	1.4%
O=C1NCCN(Cc2c(F)cccc2Cl)C1CC(=O)N1CCCCO1 (stereo not drawn)	11.1	-3.4%	-122.1%[inhibitor]	12.0%	0.7	-10.8	1.2%
Cc1ccc(C)c(NC(=S)N2CCC(N(C)CC3CCCO3)CC2)c1 (stereo not drawn)	-30.0	-0.3%	-27.8%	11.4%	0.5	-0.9	-0.2%
CCc1ccccc1NC(=S)N1CCN(c2ccccn2)CC1	9.4	10.8%	6.1%	16.2%	5.8	-27.6	-29.7%
CCOc1ncccc1C(=O)N=c1sccn1C	-33.1	8.3%	11.1%[15.4 µM]	6.6%	-1.1	-3.7	·
COc1ccc(-n2nnnc2-c2ccccc2)cc1	0.8	7.7%	-6.9%	13.8%	1.8	-1.1	-1.2%
COc1cc(OC)nc(-n2ncc(OC)c(Br)c2=O)n1	3.2	3.2%	-3.6%	-0.4%	3.2	12.4	-14.4%
CC1=NN(C(=O)c2ccc(Cn3nc(C)c([N+](=O)[O-])c3C)o2)C(O)(C(F)(F)F)C1 (stereo not drawn)	-2.3	-2.1%	-85.6%[inhibitor]	-6.8%	4.0	46.8	0.1%
Cc1ccc(S(=O)(=O)N2C[C@H]3C(=O)C[C@@H](c4ccccc4)N(S(=O)(=O)c4ccc(C)cc4)[C@H]3C[C@H]2c2ccccc2)cc1	·	·	-36.3%[inhibitor]	·	·	-17.8	0.0%
CCCSc1nc2sc3c(c2c(=O)n1-c1ccc(OC)cc1)CCN(C)C3	6.9	-7.6%	-40.8%	-5.6%	13.0	2.6	·
CS(=O)(=O)c1ccc2nc(NC(=O)Cc3ccccc3)sc2c1	3.8	4.4%	-26.6%	-0.6%	-3.5	13.4	-1.0%
COc1ccc(Nc2c(-c3ccc(C)cc3)nc3cnccn23)cc1	-2.9	5.3%	3.4%	?	-3.6	16.9	1.4%
CCSc1nnc(NC(=O)c2ccc(C)o2)s1	11.2	12.7%	10.8%	-3.6%	-0.4	22.6	-2.0%
COc1ccc2[nH]c3c(c2c1)CCN1C(=O)C(CC(=O)NCCc2ccccn2)C[C@H](C(=O)N2CCOCC2)[C@@]31C (stereo partly drawn)	·	·	·	4.3%	·	2.1	-1.9%
COc1ccc(-c2cn[nH]c2-c2ccc(OCc3ccccc3)cc2O)cc1OC	18.9	8.5%	-9.5%[15.4 µM]	-27.9%	4.7	14.3	·
CNC(=O)CSc1nnc(-c2cccs2)o1	-0.8	13.0%	-20.5%	6.2%	1.7	4.4	-0.4%
S=c1[nH]nc(C2CCCCC2)n1/N=C/c1ccccc1Br	13.1	-6.3%	22.7%	-22.1%	-1.1	5.0	·
CCCc1nnc(NC(=O)c2cccnc2)s1	-0.9	17.2%	-3.4%	3.0%	-1.5	3.5	-2.4%
Cc1ccc(OCCN2CCNCC2)c([N+](=O)[O-])c1	11.7	-29.4%	-8.0%	16.8%	·	-3.8	-1.3%

Continued:
mol	TRPV1 PAM	Sfp PPTase inh	gsp agonist	gsp antagonist	Menin MLL FP FL	TRPML1 inh	ClpP mod
CC(=O)CCC(=O)N1CCCC(N2CCN(c3cccc(Cl)c3)CC2)C1 (stereo not drawn)	3.9	12.5%	-86.5%[inhibitor]	-4.1%	20.9	71.0	·
O=C1CCCCC1Oc1ccc2ccc(=O)oc2c1 (stereo not drawn)	-3.2	3.7%	?	7.1%	-0.3	-14.3	3.8%
CCN=c1scc(-c2cccs2)n1/N=C/c1cc(OC)ccc1O	-15.0	?	16.3%	?	5.3	2.8	-0.9%
CC(C)n1nccc1NC(=O)COC(=O)c1ccc(NC(N)=O)cc1	·	·	0.0%	-2.0%	·	32.7	·
Nc1ccc(N2CCCCC2)c(S(=O)(=O)Nc2ccccc2Cl)c1	-1.6	28.2µM*	-0.3%[15.4 µM]	-9.9%	2.2	4.9	·
COc1ccc(C2=NN(C(=O)c3ccco3)C(c3ccco3)C2)cc1OC (stereo not drawn)	-6.4	6.4%	-7.8%[15.4 µM]	-13.8%	9.1	40.1	·
Cc1cc2nc3n(c2cc1C)CC1CC(C(=O)NCc2ccccc2)N(C)C31 (stereo not drawn)	9.0	·	·	-3.4%	·	18.5	-0.4%
O=C(O)C1CCCCC1C(=O)Nc1ccc(S(=O)(=O)N2CCCC2)cc1 (stereo not drawn)	2.0	8.6%	-8.0%	9.5%	·	20.3	·
CCS(=O)(=O)CCSC1OC(COC(C)=O)C(OC(C)=O)C(OC(C)=O)C1OC(C)=O (stereo not drawn)	0.3	16.0%	-17.9%[15.4 µM]	-6.3%	-6.8	-2.6	·
